# Screens (PubChem BioAssay)
# Arbovirus anti: antivirals against arbovirus infection, primary screen, cell-based, full library, 10K replicate subset | hit rate 0.37% among 200,000 | inhibition, % at 10 µM | arbovirus infection cell-based antiviral screen;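 active means inhibition from about 30%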;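 further: bluetongue infection of BSR cells; cell survival read as ATP light after 72 h; 0% = infected wells without compound and 100% = uninfected wells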
# Mtb H37Rv: M. tuberculosis H37Rv growth inhibitors, H37Rv strain (AID 1626); hit rate 0.95% among 220,000; M. tuberculosis H37Rv growth inhibition; higher % means a stronger effect; one-dose inhibition, % at 10 µM; IC50 in µM for titrated hits;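 active means confirmed in a dose series; inconclusive means inhibition above 80% but not taken into the dose series; inactive means below 80% or under 30% at every dose of the series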;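 further: bacteria incubated seven days before Alamar blue readout; 0% = bacteria only wells and 100% = bacteria with antibiotic wells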
# YopH PTP inh: YopH tyrosine phosphatase inhibitors, primary screen, biochemical, fluorescence Ex485/Em525; YopH tyrosine phosphatase [Yersinia enterocolitica]; hit rate 0.16% among 140,000; inhibition, %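 (about 10 µM by stock and volumes)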; AID 898, 2007;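 active means inhibition of 50% or more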;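 further: controls were vehicle for no effect and minimum signal wells for full effect; inactives centre near -20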
# RecA intein inh: Mtb RecA intein splicing inhibitors, primary screen, biochemical, fluorescence, HTS. cell-free RecA intein splicing. inhibition, %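 (about 9 µM by stock and volumes)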. hit rate 0.75% among 290,000. Protein RecA (Mycobacterium tuberculosis (strain ATCC 25618 / H37Rv)), P9WHJ3; in the data active means inhibition above about 30%; inconclusive means no clear call, values can overlap the other calls;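 further: 0% = vehicle wells and 100% = reference inhibitor control wells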
# Target sequence (P9WHJ3 whole entry, looked up): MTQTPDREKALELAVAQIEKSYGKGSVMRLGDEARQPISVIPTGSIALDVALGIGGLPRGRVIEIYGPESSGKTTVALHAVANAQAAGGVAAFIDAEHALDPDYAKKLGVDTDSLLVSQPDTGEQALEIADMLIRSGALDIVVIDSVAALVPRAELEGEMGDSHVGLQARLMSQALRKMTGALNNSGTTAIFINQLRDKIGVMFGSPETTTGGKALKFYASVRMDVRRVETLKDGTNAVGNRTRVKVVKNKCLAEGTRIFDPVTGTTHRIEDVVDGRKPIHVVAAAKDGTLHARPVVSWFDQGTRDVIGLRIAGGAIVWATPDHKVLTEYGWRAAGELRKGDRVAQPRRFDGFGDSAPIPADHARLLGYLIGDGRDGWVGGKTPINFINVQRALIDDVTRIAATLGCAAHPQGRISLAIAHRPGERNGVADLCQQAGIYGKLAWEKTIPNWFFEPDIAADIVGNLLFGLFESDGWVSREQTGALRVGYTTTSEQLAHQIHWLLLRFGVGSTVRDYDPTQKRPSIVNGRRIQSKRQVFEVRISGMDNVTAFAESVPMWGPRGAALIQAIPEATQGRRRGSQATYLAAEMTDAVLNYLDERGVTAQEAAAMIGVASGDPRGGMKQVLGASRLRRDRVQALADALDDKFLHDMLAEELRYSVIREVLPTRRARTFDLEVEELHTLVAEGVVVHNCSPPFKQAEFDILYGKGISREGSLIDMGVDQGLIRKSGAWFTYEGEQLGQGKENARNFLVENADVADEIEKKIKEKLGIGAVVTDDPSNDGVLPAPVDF
# Mtb betalactam: beta-lactam sensitization of Mtb H37Rv, H37Rv | M. tuberculosis H37Rv growth with meropenem, percent inhibition; hits of this screen are not shown here | inhibition, % at 25 µM | hit rate 0.27% among 330,000;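 active means about 74% or more and at least 40 points above the plate without the antibiotic, then above 30% in a dose series; inconclusive means first-round hits that could not be retested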;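 further: growth measured after seven days incubation then overnight dye step; 0% = bacteria only wells and 100% = bacteria with antibiotic; twin plates without the antibiotic show which effects depend on it; some results filed as inactive read as strong as hits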
# Arbovirus anti repeat: recorded beside Arbovirus anti, whose call it bears; inhibition, %; measured here: 10K subset replicate screen; many hits read low in the repeat;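 first of two repeat runs on a subset; 0% = infected and 100% = uninfected wells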
# Active calls of the source: *; ? = inconclusive; . = not tested or not shown.
SMILES,Arbovirus anti,Mtb H37Rv,YopH PTP inh,RecA intein inh,Mtb betalactam,others
Cc1ccc(NC2OC(C(O)CO)C(O)C2O)cc1[N+](=O)[O-] (configuration not stated),0.3,?,-34.3,-3.3,98.0,
COc1ccccc1-c1nnc(SCC(=O)N2CC(C)CC(C)C2)o1 (configuration not stated),0.4,-5.6%,5.5,2.3,4.1,
COc1ccc(NC(=O)CCS(=O)(=O)c2cc3c(cc2C)NC(=O)CO3)cc1,.,.,.,-7.0,4.0,
COC(=O)COc1ccc(-c2nccc(-c3ccc(Br)cc3)n2)cc1,.,.,.,-3.5,99.8,
Cc1ccccc1NC(=O)N1CCN(S(=O)(=O)c2ccccc2)CC1,0.6,2.2%,.,2.0,-7.5,
COC(=O)c1ccc(COc2ccc(-c3nnn(CC(=O)NC(C)(C)C)n3)cc2)cc1,-10.8,-4.2%,-20.9,-6.1,8.9,
O=C(Cc1ccccc1[N+](=O)[O-])N1CCN(Cc2ccc3c(c2)OCO3)CC1,-6.5,8.0%,.,1.0,-11.5,
O=C(c1ccccc1Oc1ccccc1)N1CCN(c2ccccc2)CC1,2.5,2.0%,2.4,17.4,17.0,
Oc1oc(-c2ccccc2Br)nc1C=Nc1ccc(Br)cn1,23.4,2.6%,.,0.7,70.1,
O=C(Cc1ccc(S(=O)(=O)N2CCOCC2)s1)NCCOc1ccccc1F,.,.,.,-0.2,-2.2,
CCOC(=O)c1cc(NC(=O)c2cnccn2)cc(C(=O)OCC)c1,4.5,6.2%,0.5,-0.8,38.4,
N/C(=N\OC(=O)CCC1CCCC1)c1ccc(Br)cc1,.,.,.,2.6,-7.7,
CSc1cccc(NC(=O)c2cc(S(=O)(=O)N3CCCC3)cn2C)c1,.,.,.,-1.4,-4.9,
COc1cccc(NC(=O)COC(=O)COc2ccccc2[N+](=O)[O-])c1,-5.9,3.1%,-29.6,-0.6,3.6,
NC(=O)NC(CC(=O)NCCc1ccccn1)c1ccccc1Cl (configuration not stated),.,.,.,2.1,-11.7,
O=C(COC(=O)c1nc(Cl)ccc1Cl)c1ccc(Cl)s1,-1.2,-7.4%,-31.1,.,6.9,
O=S(=O)(NN1CCOCC1)c1ccc(Br)s1,.,.,.,-4.4,-6.8,
COc1ccc(Oc2ccc(N/C=C3/CCCC3=O)cc2)cc1,-0.5,78.0%,-44.7,-3.5,0.7,
Cc1cccc(-n2nnnc2SCC(=O)N(CC(C)C)c2c(N)n(CC(C)C)c(=O)[nH]c2=O)c1,-0.3,7.2%,.,2.2,-10.1,
COc1ccc(-n2c(SCC(=O)Nc3cc(C)on3)nc3ccccc3c2=O)cc1Cl,3.5,1.4%,.,-0.7,-5.3,
Cc1ccc(CSc2nn3c(=O)c(C)nnc3s2)cc1,17.8,-3.3%,-37.8,-3.4,-0.2,
N=C1/C(=C\c2ccc(OC(=O)c3ccccc3Cl)cc2)C(=O)N=C2SC(N3CCOCC3)=NN12,.,.,.,11.0,-3.8,
Cc1no[n+]([O-])c1COc1ccc(/C=C(\C#N)C(N)=O)cc1,-1.1,2.0%,-41.4,3.9,3.1,
Cc1c(OCC(=O)NCCCN2CCOCC2)ccc2c3c(c(=O)oc12)CCC3,.,.,.,3.3,-3.8,
COc1ccc(C(C(=O)NC2CCCC2)N(Cc2cccnc2)C(=O)Cc2cccs2)c(OC)c1 (configuration not stated),.,.,.,-1.6,2.3,
COc1ccc(Cc2nc(-c3cccc(C)c3)no2)cc1,6.2,-1.6%,-7.3,7.0,-1.7,
Cc1ccc(CNC(=O)c2ccc[nH]2)cc1,-7.1,-1.1%,.,8.3,-1.0,
COc1cccc(CN(Cc2ccco2)S(=O)(=O)c2ccc(S(=O)(=O)NCc3ccccc3)cc2)c1OC,-7.6,4.1%,-8.1,3.8,-7.8,
COc1ccc(C2C(C(C)=O)=C(O)C(=O)N2c2ccc(O)cc2)cc1 (configuration not stated),.,.,.,-1.4,2.2,
COc1cc(OC)c(OC)cc1/C=N/n1c(-c2n[nH]c3c2CCC3)n[nH]c1=S,.,-4.0%,.,0.6,-1.3,
COc1ccc(NC(=O)Nc2nnc(N3CCC(C)CC3)s2)cc1OC,-6.1,.,-27.1,-0.8,-0.4,Arbovirus anti repeat=-4.1
Cc1[nH]c2ccccc2c1C(=O)COC(=O)CCS(=O)(=O)c1ccccc1Cl,-7.3,-8.3%,-24.1,-1.8,-0.3,
Fc1ccccc1NC(=S)NNc1ncc(C(F)(F)F)cc1Cl,-7.3,.,-1.1,-1.3,-10.1,
Cc1cccc(OP(=O)(Oc2ccccc2)OC(c2ccccc2)C(F)(F)F)c1 (configuration not stated),2.0,-3.5%,-27.2,9.4,6.5,
O=S(=O)(c1cccs1)N1CN(Cc2ccco2)c2nc3ccccc3nc21,.,-0.5%,.,-0.1,-6.5,
CCO[C@@H]1OC(C(=O)N2CCOCC2)=C[C@H](c2cn(C(C)=O)c3ccccc23)[C@H]1CCCO,3.7,-3.0%,.,0.0,-15.3,
COc1ccc(NC(=O)n2ncc3c(C)cccc32)cc1,.,.,.,9.2,30.0,
O=C(Cn1c(=O)n(CC2CCCO2)c(=O)c2ccccc21)c1ccc(Cl)c(Cl)c1 (configuration not stated),-2.6,-7.4%,-8.1,.,9.8,
Cc1ccc(NC(=O)N2CCN(c3ncccc3C(F)(F)F)CC2)cc1,.,-5.2%,.,.,5.0,
CN(C)c1nc(NS(=O)(=O)c2ccc(Cl)cc2)nc(N(C)C)n1,2.5,10.8%,-14.7,1.1,-4.0,
CCOC(=O)c1ccc(NC(=O)c2sc3nc(N4CCOCC4)c4c(c3c2N)CCCC4)cc1,.,.,.,-5.3,79.8,
Cc1ccc2cc(CN(CCO)Cc3nnnn3Cc3ccc(F)cc3)c(=O)[nH]c2c1,-5.0,-0.6%,-64.0,2.0,-6.8,
O=C(/C(=C/O)N=Nc1ccccc1)c1ccc(Cl)cc1,-28.9,11.0%,.,0.7,9.5,
CCCN(CCC)C(=O)Cn1c(=O)n(CCC(=O)NCCc2ccccc2)c(=O)c2ccccc21,-2.6,-2.8%,-7.2,-2.2,-4.9,
Cc1ccc(CNC(=O)CSc2nc3c(sc4ccccc43)c(=O)n2CCCN2CCCC2)cc1,-24.3,17.9%,.,3.7,5.9,
CC(C)(C)[C@H]1C=C(C(=O)N2CCOCC2)O[C@@H](OCc2ccc(CO)cc2)C1,0.5,-14.0%,.,-3.0,-2.8,
CCOC(=O)N1CCN(C(=O)COC(=O)c2ccccc2NCCO)CC1,.,.,.,-6.3,-7.1,
Cc1ccc(C2/C(=C(\O)c3ccc4c(c3)OCCO4)C(=O)C(=O)N2CC2CCCO2)cc1 (configuration not stated),.,.,.,-0.7,-1.1,
COc1ccc(C2CC(C(F)(F)F)n3ncc(C(=O)Nc4cccc(O)c4)c3N2)cc1OC (configuration not stated),8.6,-3.6%,-11.1,0.6,16.6,
COc1cccc(NC(=S)NC2CC3CCCC(C2)N3CC(C)C)c1 (configuration not stated),3.4,0.9%,.,-0.3,3.3,
Cn1cc(CCCC(=O)NCc2ccc(F)cc2)c2ccccc21,.,.,.,6.3,-7.6,
CN(CC(=O)Nc1cccnc1)S(=O)(=O)c1cc(Cl)ccc1Cl,-1.6,-12.3%,-14.8,2.8,?,
COc1cccc(/C=N/n2c(-c3ccco3)nc3ccccc3c2=O)c1,-2.3,1.6%,-9.0,1.2,-2.4,
CC(=O)N(Cc1cccnc1)Cc1cc2ccc(C)cc2[nH]c1=O,-3.8,3.4%,-25.4,-2.3,-9.7,
Cc1cc(Br)ccc1NC(=O)CN(C)C(=O)CSCc1ccccc1,.,.,.,-4.0,-12.4,
CCN(CC)S(=O)(=O)c1cccc(C(=O)Oc2cccc(NC(=O)c3cccs3)c2)c1,0.3,-1.0%,-25.3,10.6,-0.6,
CCCC1(c2ccccc2)NC(=O)N(CC(=O)Nc2sc(-c3ccccc3)cc2C(=O)OCC)C1=O (configuration not stated),-14.4,-3.9%,-5.6,-2.1,28.8,
Cc1ccc2nc3c(c(Nc4ccc(O)cc4)c2c1)CCC3,.,.,.,25.3,7.7,
Cc1ccc(C(C(=O)NC2CCCCC2)N(C(=O)Cc2c[nH]c3ccccc23)c2ccccc2)o1 (configuration not stated),0.1,5.5%,-29.2,-2.6,3.5,
O=[n+]1cc(-c2ccc(Cl)cc2)n([O-])c2c1CCC2,.,-5.2%,.,-10.4,-10.1,

# Quoted from above for reference:
SMILES,Arbovirus anti,Mtb H37Rv,YopH PTP inh,RecA intein inh,Mtb betalactam,others
CCCC1(c2ccccc2)NC(=O)N(CC(=O)Nc2sc(-c3ccccc3)cc2C(=O)OCC)C1=O (configuration not stated),-14.4,-3.9%,-5.6,-2.1,28.8,
Cc1ccc2nc3c(c(Nc4ccc(O)cc4)c2c1)CCC3,.,.,.,25.3,7.7,
Cc1ccc(C(C(=O)NC2CCCCC2)N(C(=O)Cc2c[nH]c3ccccc23)c2ccccc2)o1 (configuration not stated),0.1,5.5%,-29.2,-2.6,3.5,
O=[n+]1cc(-c2ccc(Cl)cc2)n([O-])c2c1CCC2,.,-5.2%,.,-10.4,-10.1,

# The list continues:
SMILES,Arbovirus anti,Mtb H37Rv,YopH PTP inh,RecA intein inh,Mtb betalactam,others
N#Cc1c(/N=C/c2ccc(O)cc2O)sc2c1C1CCN2CC1,-2.8,0.7%,29.2,-10.2,6.2,
CCC(NC(=S)NC1CCCCC1)c1ccc(C(C)C)cc1 (configuration not stated),.,.,.,6.7,15.0,
Cc1n[nH]c(=S)n1/N=C/c1ccc(Br)o1,2.4,7.0%,-32.4,-0.6,-8.5,
O=C(CSc1nnc(-c2ccc(F)cc2)o1)Nc1ccccc1N1CCOCC1,.,17.1%,-50.2,0.2,50.0,
CC(C)c1ccc(OCC(=O)Nc2cccc3c2CCCC3)cc1,-6.2,-8.4%,-1.4,-0.9,-2.3,
CC1CCc2c(sc(NC(=O)Cn3nc(C(F)(F)F)c4c3CCCCC4)c2C#N)C1 (configuration not stated),-4.3,-5.8%,-11.1,.,69.1,
Cc1ccc2c(c1)c1c(n2CC(O)Cn2ccnc2C)C(=O)CCC1 (configuration not stated),-4.1,-3.3%,-6.4,-1.6,-14.8,
COc1cc(NC(=O)COc2cc(O)c3c(c2)OC(C)(C)CC3=O)cc(OC)c1OC,.,.,.,11.2,-2.0,
COc1cc(OC)cc(-c2cc3nc(C)cc(N4CCN(C(=O)c5ccco5)CC4)n3n2)c1,1.2,.,5.8,-13.2,-0.4,
Cc1ccc(OCCn2cc(/C=C(\C#N)C(=O)NCC3CCCO3)c3ccccc32)cc1C (configuration not stated),-8.2,9.7%,-14.8,-3.0,-4.3,
COc1ccc(N(C(=O)c2cccnc2)S(=O)(=O)c2ccc(OC)c(OC)c2)cc1,.,.,.,7.2,?,
Cc1c(NC(=S)NC(=O)c2cccc([N+](=O)[O-])c2)c(=O)n(-c2ccccc2)n1C,.,.,.,-1.7,-0.3,
NS(=O)(=O)c1ccc(CCNC(=O)COC(=O)Cc2c(F)cccc2Cl)cc1,.,.,.,-3.1,-13.5,
Cc1ccc(S(=O)(=O)N2CCN(Cc3csc(C)n3)CC2)cc1,.,.,.,-0.9,-5.4,
CC(C)[C@H](NC(=O)NC1CCN(Cc2ccccc2)CC1)C(=O)O,.,-9.6%,.,0.8,-3.0,

# Molecules shown so far that have a tert-butyl group, in the order listed:
SMILES,Arbovirus anti,Mtb H37Rv,YopH PTP inh,RecA intein inh,Mtb betalactam,others
COC(=O)c1ccc(COc2ccc(-c3nnn(CC(=O)NC(C)(C)C)n3)cc2)cc1,-10.8,-4.2%,-20.9,-6.1,8.9,
CC(C)(C)[C@H]1C=C(C(=O)N2CCOCC2)O[C@@H](OCc2ccc(CO)cc2)C1,0.5,-14.0%,.,-3.0,-2.8,

# Further entries
SMILES,Arbovirus anti,Mtb H37Rv,YopH PTP inh,RecA intein inh,Mtb betalactam,others
O=C(O)CCC(=O)Nc1ccccc1Oc1ccccc1,2.9,6.3%,.,-1.3,-8.5,
CC(=O)c1c(C(C)=O)c(C)n(-c2cccc([N+](=O)[O-])c2)c1C,1.8,-7.1%,-12.9,-3.5,-0.4,
Cc1ccccc1CCN(C(=O)c1csnn1)C(C(=O)NC1CCCC1)c1ccncc1 (configuration not stated),.,.,.,1.8,-1.2,
O=C(CSc1n[nH]c(-c2ccccc2)n1)Nc1ccc(F)cc1F,.,.,.,4.6,-4.6,
Cn1cc(CN2CC3C[C@@H]4CC2C[C@H](C3)C4)c(-c2ccc3c(c2)OCCO3)n1,-0.1,-9.6%,.,-3.5,-6.0,
CCOC(=O)CN(C(=O)CSc1nnc(CNc2ccc(F)cc2)n1CC)c1ccc(F)cc1,5.6,1.2%,-13.6,0.5,-6.2,

# Not all compounds are listed; the hit share may differ from the screen's.
